Screens: PubChem BioAssay, several laboratories
WNV protease inh: inhibitors of WNV NS2B-NS3 protease, primary screen, biochemical, fluorogenic substrate; Genome polyprotein (West Nile virus), P06935; fluorogenic substrate Ex360/Em465; stronger effect = lower value; z-score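 (tested at a level between 10 and 100 µM)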; 65,000 compounds, 0.18% hits;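 active = z-score at -3 or under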;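 note: score is relative to mean and spread of the compound wells of a plate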
Target sequence (P06935 1371-1501 limits assumed): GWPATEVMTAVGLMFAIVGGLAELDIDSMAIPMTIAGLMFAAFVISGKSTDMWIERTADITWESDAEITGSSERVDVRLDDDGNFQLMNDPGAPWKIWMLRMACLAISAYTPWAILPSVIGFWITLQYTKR
Target sequence (P06935 1502-1679 limits assumed): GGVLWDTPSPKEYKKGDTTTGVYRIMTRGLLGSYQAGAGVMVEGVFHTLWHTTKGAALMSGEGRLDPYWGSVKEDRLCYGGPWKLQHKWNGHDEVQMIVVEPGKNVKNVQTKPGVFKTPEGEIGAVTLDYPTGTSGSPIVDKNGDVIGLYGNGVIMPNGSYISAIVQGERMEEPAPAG
MT1-MMP reporter: inhibitors of MT1-MMP promoter transcription, cell-based, luciferase reporter, luminescence (AID 618) | calls from a first round at 10 µM; hits with a dose series show EC50 in µM | MT1-MMP promoter luciferase reporter cells, luminescence | 87,000 compounds, 0.62% hits;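 active = over half of the reporter light lost at 10 µM or EC50 under 50 µM; inactive = the rest and hits that failed the dose series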;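 note: actives suppress MT1-MMP promoter-driven transcription so potencies describe inhibitors; HT1080 fibrosarcoma cells; overnight exposure; toxic or luciferase-blocking compounds were not removed from the actives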
Hsc70: Hsc70 inhibitors, probe displacement, primary screen, biochemical, fluorescence polarization (AID 568); 83,000 tested, under 10 active; displacement, % at 20 µM; hits with a dose series show IC50 in µM; Heat shock cognate 71 kDa protein (Homo sapiens); Hsc70 fluorescence polarization, probe displacement; higher % means a stronger effect; strong numbers were not always called active;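 active = displacement above 50% without optical interference and an IC50 on retest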;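 note: ATPase domain with a fluorescein-tagged ATP probe; 0% = vehicle and 100% = excess ADP; read after one hour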
* hit, by the source's call; i = inactive; / = not tested or not shown.

Values run as follows: WNV protease inh, MT1-MMP reporter, Hsc70
Cn1c(CN2CCCCC2)nc2cc(NS(=O)(=O)c3ccc(Cl)cc3)ccc21
    1.7, i, 1.8%
CC(=O)Cc1nsc(NC(=O)c2cn(-c3ccccc3)nc2-c2ccc(Br)cc2)n1
    /, i, -0.7%
Cc1ccc(-c2csc(=S)n2CC(=O)OCC(=O)NCc2ccco2)cc1
    0.58, i, -4.1%
CCN(CC)CCCN1C(=O)C(=O)/C(=C(/O)c2ccc(OC)cc2)C1c1ccco1 (stereo unspecified)
    0.35, i, 0.5%
CCn1c(C(Cc2ccccc2)NC(=O)COC)nc2ccccc21 (stereo unspecified)
    -1, i, 2.6%
CC(C)(C)OC(=O)N1CCOCCOCCNCCOCCOCC1
    /, i, -3.6%
OCCOCCNc1ncnc2sc(-c3ccccc3)cc12
    /, i, 0.3%
CCOC(=O)N1CCN(S(=O)(=O)c2cc(C)c(C)cc2C)CC1
    0.54, i, -3.1%
Cc1ccc(C)c(OCC(=O)NCCNC(=O)COc2cc(C)ccc2C)c1
    /, i, -5.6%
NC(=O)CSc1oc(-c2ccc(F)cc2)nc1S(=O)(=O)c1ccccc1
    2.2, i, 0.2%
COCCCN1C(=O)C(=O)/C(=C(/O)c2ccc(OC(C)C)cc2)C1c1ccncc1 (stereo unspecified)
    -0.63, i, 3.8%
Cc1nc(C)n(CC(O)COc2ccc3cc(Br)ccc3c2)n1 (stereo unspecified)
    0.25, i, 1.1%
COc1ccc(C(=O)OCC(=O)Nc2cc(C)on2)cc1S(=O)(=O)N1CCOCC1
    /, i, 2.4%
CCC(C(=O)Nc1nccs1)(C(F)(F)F)C(F)(F)F
    -1.7, i, -3.5%
O=C(c1cccs1)N1CCCC(c2ccccc2)C1 (stereo unspecified)
    0.55, i, -2.4%
O=C(O)CC(NC(=O)c1ccccc1NC(=O)c1ccccc1)C(=O)O (stereo unspecified)
    1.4, i, 2.4%
O=C(Nc1ccon1)c1cccc(S(=O)(=O)N2CCCC2)c1
    -0.3, i, 4.9%
COCCn1c(SCC(=O)Nc2ccccc2)nc2c1c(=O)[nH]c(=O)n2C
    0.55, i, 1.6%
O=C(CS(=O)(=O)c1cn(Cc2ccc(Cl)cc2)c2ccccc12)N1CCOCC1
    -0.07, i, 0.1%
CN1CCN(C2=C(Cl)C(=O)N(c3ccc(Cl)cc3)C2=O)CC1
    0.79, i, -8.0%
CCOC(=O)N1CCN(c2c(NCCc3ccc(OC)c(OC)c3)c(=O)c2=O)CC1
    0.5, i, 1.5%
Cc1cc2c(c(=O)o1)C(C(C)C)C(C#N)=C(N)O2 (stereo unspecified)
    -1.3, i, -2.2%
Cc1nnc(NC(=O)CCC(=O)NCc2ccco2)s1
    -1.5, i, -0.5%
Cc1cccc(C)c1NC(=O)N1CCC(c2nc3ccccc3o2)CC1
    1.3, i, 1.2%
Cc1ccc(S(=O)(=O)N2CCN(C)CC2)c(C)c1
    /, i, -2.2%
CCOc1ccc(C2C(C#N)=C(N)SC(N)=C2C#N)cc1OC
    -1.1, i, -76%
O=S(=O)(c1ccc(Oc2ccc3oc4ccccc4c3c2)nc1)N1CCCC1
    -2, i, 5.0%
COc1ccc(CCNC(=O)c2nnc(Cc3c(F)cccc3Cl)o2)cc1OC
    0.4, i, 0.4%
O=C1Nc2ccccc2C12OCCCO2
    0.49, i, 3.3%
CCn1c(Cc2ccccc2)nnc1SCC(=O)Nc1ccccc1N1CCOCC1
    /, i, 1.6%
O=C(Cn1c(=O)oc2cc(S(=O)(=O)N3CCOCC3)ccc21)N1CCc2ccccc2C1
    0.48, i, 1.3%
O=C(Nc1ccccc1N1CCN(C(=O)c2ccccc2)CC1)c1cc2ccccc2o1
    0.17, i, -1.3%
Cc1ccc(NC(=O)CCc2c(C)nc3ncnn3c2C)nc1
    -0.97, i, -11%
CCN(CC)C(=O)c1csc(Nc2ccc(C)cc2)n1
    -0.07, i, 1.8%
C=CCN=c1sc(C(=O)OC)cc(=O)n1CC=C
    -0.77, i, -2.5%
N#CCCS(=O)(=O)c1nnnn1-c1ccccc1
    -0.47, i, 5.2%
Cc1ccc(Nc2nc(N)nc(CSc3nccn3C)n2)c(C)c1
    0.0096, i, -2.0%
CCOc1ccc(NC(=O)C2CC(=O)N(CC)C(=Nc3ccc4c(c3)OCO4)S2)cc1 (stereo unspecified)
    0.78, i, -0.1%
CCOC(=O)c1ccccc1NC(=O)COC
    2.1, i, -6.4%
C#CC(CO)N(CCN(Cc1ccccc1)C(C#C)CO)Cc1ccccc1 (stereo unspecified)
    -0.1, i, -6.4%

Some of these compounds in order of SMILES length, smallest number first:
Values run as follows: WNV protease inh, MT1-MMP reporter, Hsc70
O=C(Nc1ccccc1N1CCN(C(=O)c2ccccc2)CC1)c1cc2ccccc2o1
    0.17, i, -1.3%
CCOC(=O)N1CCN(c2c(NCCc3ccc(OC)c(OC)c3)c(=O)c2=O)CC1
    0.5, i, 1.5%
O=C(Cn1c(=O)oc2cc(S(=O)(=O)N3CCOCC3)ccc21)N1CCc2ccccc2C1
    0.48, i, 1.3%

Next part.
Values run as follows: WNV protease inh, MT1-MMP reporter, Hsc70
CSCCC(NC(N)=O)C(=O)NCC1CCCCC1 (stereo unspecified)
    0.48, i, 5.7%
COCC(C)n1c(SCc2ccc(C(=O)OC)o2)nc2ccccc2c1=O (stereo unspecified)
    0.11, i, 8.2%
CCOC(=O)/C(C(N)=NC(C)C)=C(\O)c1ccccc1
    -0.5, i, -3.9%
Cc1cc(C)cc(N(C(=O)CNC(=O)c2ccco2)C(C(=O)NC2CCCC2)c2cccnc2)c1 (stereo unspecified)
    0.07, i, -12%
O=C1Nc2c(c(=O)[nH]c(=O)n2-c2ccccc2F)C(C(F)(F)F)(C(F)(F)F)N1
    /, i, 3.3%
Cc1ccc(N2CCN(C(=O)CN3C(=O)c4ccccc4C3=O)CC2)cc1
    /, i, 1.4%
Cc1nc(Nc2ncc3c(n2)CC(C)(C)CC3=O)nc2ccccc12
    0.06, i, -4.7%
COC(=O)N1CCN(c2ccc(C(C)=O)cc2)CC1
    -0.09, i, 5.7%
O=C(CCn1nnc2ccccc21)Nc1nnc(COc2ccc(F)cc2)s1
    0.42, i, 6.2%
COc1ccc(-n2nnnc2SCC(=O)Nc2ccc3c(c2)OCCO3)cc1OC
    -0.24, i, 5.0%
COc1ccc(N(C(=O)c2ccco2)C(C(=O)NC2CCCC2)c2ccc(N(C)C)cc2)cc1 (stereo unspecified)
    0.39, i, 1.2%
COc1ccc(N2C(=O)C(Cl)=C(N3CCCC(C)C3)C2=O)cc1 (stereo unspecified)
    /, i, 1.1%
Cc1noc(/C=C/N(C)C)c1S(=O)(=O)N1CCCC(C(=O)N2CCCCC2)C1 (stereo unspecified)
    -0.04, i, 4.1%
CCSC1=C(C#N)C(c2cccc(OC)c2)CC(=O)N1 (stereo unspecified)
    -0.04, i, 3.7%
CC1Cc2ccccc2N1S(=O)(=O)c1cccc(C(=O)NC2CC2)c1 (stereo unspecified)
    0.83, i, -4.2%
CN(C)CCCNC(=O)c1ccccn1
    /, i, -2.2%
C#CCNc1nc(CC)nc2c1nnn2Cc1ccccc1F
    0.69, i, 0.2%
CN(C)C(=O)c1cc(S(=O)(=O)N(C)C)c(Cl)cc1N1CCCC1
    1.7, i, -0.1%
CCC(=O)Nc1c(C)ccc2nsnc12
    1.2, i, 0.4%
CS(=O)(=O)NCC(c1cccnc1)N1CCN(c2ccc(F)cc2)CC1 (stereo unspecified)
    0.39, i, 4.8%
N#CC1=C(N)Oc2n[nH]c(-c3ccccc3)c2C1c1cccc(OC(=O)N2CCOCC2)c1 (stereo unspecified)
    -1.4, i, 4.8%
N#CC1(C#N)C2=C(CCCC2)NC(c2ccccc2)C1(C#N)C#N (stereo unspecified)
    -1.3, i, -20%
CCOC(=O)c1ccc(Oc2cc(C)nc(SC)n2)cc1
    1.1, i, 2.7%
Nc1c(C(=O)Nc2ccccc2)sc2nc(-c3ccco3)ccc12
    -0.16, i, -1.6%
CCn1cc(C(=O)NCc2ccccc2OC)c(=O)c2cc(S(=O)(=O)N(C)C)ccc21
    -0.29, i, 2.1%
C=CCN1CCN(C(c2ccc(Cl)cc2)c2nnnn2CCc2ccc(OC)c(OC)c2)CC1 (stereo unspecified)
    -0.01, i, -7.6%
CCOC(=O)C1CCN(C(=O)Nc2ccc3c(c2)nc(C)n3C)CC1
    0.53, i, -5.5%
COc1cc(NC(=O)C(C)Oc2ccccc2)c(C(=O)O)cc1OC (stereo unspecified)
    0.76, i, 4.0%
O=C(Cn1cnc2ccccc2c1=O)NCC(=O)N1CCN(Cc2ccc3c(c2)OCO3)CC1
    0.12, i, -1.9%
Cc1cc(=O)oc2ccc(OCC(=O)NCc3ccco3)cc12
    /, i, -2.3%
CN(C)C(=O)CNC(=O)C1CCCCC1
    /, i, 2.7%
CSCCC(NC(=O)C1CCC(C)CC1)C(=O)NCc1ccco1 (stereo unspecified)
    0.29, i, -2.3%
O=C(Nc1ccccc1C(=O)N1CCCC1)c1ccccc1
    /, i, 7.9%
Cc1nnc(SCCn2c(N3CCC(Cc4ccccc4)CC3)nc3c2c(=O)[nH]c(=O)n3C)s1
    0.31, i, 4.1%
CC(=O)Nc1sc2c(c1C(N)=O)CCCC2
    /, i, -8.1%
O=C(CCSc1nc(-c2ccco2)cc(C(F)(F)F)n1)N1CCN(c2ccccn2)CC1
    -0.81, i, 1.2%
COc1ccc(-n2nnnc2SCC(=O)Nc2ccccc2)cc1
    /, i, -0.2%
CC(=O)N1CC=C2C(C#N)=C(N)C(C#N)(C#N)C(CCc3ccccc3)C2C1 (stereo unspecified)
    0.26, i, -0.6%
O=C(CN1CCOCC1)c1c[nH]c2ccccc12
    /, i, 2.6%
CCOc1ncccc1C(=O)Oc1ccc2c(c1)OCO2
    1, i, -6.4%
COCCCNc1ccnc2c(Cl)cccc12
    0.15, i, -5.3%
COC(=O)c1cn(Nc2ncc(C(F)(F)F)cc2Cl)c(=O)c2ccccc12
    /, i, 4.6%
O=C1N(Nc2ccccc2)C(c2ccc(Br)cc2)C12CCCC2 (stereo unspecified)
    /, i, -0.2%
COC(=O)c1[nH]c2cc(OC)ccc2c1NC(=O)CCN1CCN(c2ccccc2)CC1
    /, i, 4.6%
O=c1cc(CSc2ccccn2)[nH]c(=O)[nH]1
    0.54, i, -3.1%
CCOC(=O)CSc1nnc(CNC(=O)c2ccc(OC)c(OC)c2)n1C
    0.32, i, -3.5%
Cc1cc(-c2ccccc2N)n[nH]1
    -0.59, i, -3.3%
CC(C)(C)N(C(=O)Cn1nnc(-c2ccc(F)cc2)n1)C(C(=O)NC1CCCC1)c1ccncc1 (stereo unspecified)
    /, i, -1.4%
Cc1cc(=O)oc2cc(OCC(=O)NCCc3nc4ccccc4[nH]3)ccc12
    -1, i, -3.6%
N#Cc1cccc(CSc2nnc(CCCO)n2-c2ccccc2)c1
    -0.8, i, 6.6%
Cc1ccc2nc(C3CCCN(C(=O)NCc4ccccc4)C3)[nH]c2c1 (stereo unspecified)
    0.06, i, -5.4%
CCOC(=O)C1CCN(C(=O)COC(=O)COc2ccccc2OC)CC1
    0.48, i, -1.8%
C=CCNc1ncnc2c1cnn2-c1ccc(C)cc1C
    0.09, i, 4.1%
O=c1cc(CSc2nnc(-c3ccccc3)o2)c2ccccc2[nH]1
    -0.14, i, -0.1%
C=C(C)c1cccc(C(C)(C)NC(=O)N2CCCC(C(N)=O)C2)c1 (stereo unspecified)
    0.14, i, 9.1%
O=C1CC(c2ccccc2)n2nc(NC(=O)C3CCCO3)nc2N1 (stereo unspecified)
    -0.14, i, 0.8%
CSC1=C(C#N)C(c2ccccc2Cl)C2=C(CCCC2=O)N1 (stereo unspecified)
    0.56, i, 4.4%
c1ccc2c(c1)nc1sccn12
    0.42, i, -4.3%
O=C(Nc1ccc2c(c1)nc1n2CCSC1)c1ccccc1
    -0.88, i, 3.4%
CC12CC3(C)CC(C)(C1)CC(C(=O)NC1=NCCS1)(C2)C3
    /, i, -1.6%

Compounds from the list above with a tert-butyl group, in the order listed:
Values run as follows: WNV protease inh, MT1-MMP reporter, Hsc70
CC(C)(C)OC(=O)N1CCOCCOCCNCCOCCOCC1
    /, i, -3.6%
CC(C)(C)N(C(=O)Cn1nnc(-c2ccc(F)cc2)n1)C(C(=O)NC1CCCC1)c1ccncc1 (stereo unspecified)
    /, i, -1.4%

Additional compounds follow.
Values run as follows: WNV protease inh, MT1-MMP reporter, Hsc70
CC(=O)c1cccc(NC(=O)Nc2cc3sccc3n2C)c1
    -0.69, i, -1.2%
CCOC(=O)c1cnc(SCc2nc(N)nc(Nc3ccc(OC)cc3)n2)nc1N
    /, i, 1.1%
Cc1ccc2cc(CN(Cc3ccco3)C(=O)NC3CCCCC3)c(=O)[nH]c2c1C
    /, i, 4.5%
Cc1ccc(OCCn2c(NC(=O)c3ccco3)nc3ccccc32)cc1
    -1.2, i, 1.8%
CNc1nnc(-c2cc3cc(Cl)ccc3oc2=O)s1
    /, i, 8.4%
CCOc1ccc2nc(N3CCC(C(=O)N4CCN(c5ccccn5)CC4)CC3)sc2c1
    1.5, i, 1.9%
